# Source: PubChem (PCMD)
# Biofilm kill mix: mixtures killing C. albicans biofilm; C. albicans biofilm persisters + clotrimazole, fluorescence viability; primary screen in compound mixtures of four per well; inhibition, % at 7.6 µM; 120,000 tested, 0.02% active;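 active = inhibition above 30.3% in the primary screen of four-compound pools, then above 30% when the compound was retested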;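 note: compounds exposed to preformed 24 h biofilms for 48 h; the number belongs to the whole pool; some results filed as inactive read as strong as hits; inactives centre near 12; 0% = biofilm with clotrimazole alone and 100% = kill control; retested singly at about 60 µM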
#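 Assay system: C. albicans biofilms / Medium: RPMI/MOPS medium, pH 7.0 / Schedule: biofilm formation 24 h, compound exposure 48 h, 37 °C / Measured by: Alamar Blue fluorescence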
# * hit, by the source's call. A portion of the library (hit frequency here may not be typical).
SMILES,Biofilm kill mix
COc1ccccc1CN1C[C@@H]2C[C@@H](c3ccc4nsnc4c3)N3CCC[C@@]23C1=O,9
CC(=O)c1ccc(Oc2cc(C)nc(N3CCOCC3)n2)cc1,0
CN1CCN(C(=O)C2=C[C@@H](c3csc4ccccc34)C[C@@H](OCCCCO)O2)CC1,19
O=C(COc1ccc2ccccc2c1)Nc1ccc2c3c(cccc13)CC2,7
CC(C)CCn1c(=O)[nH]c2ccccc21,18
O=C1c2ccccc2-c2onc3ccc(Oc4ccccc4)c1c23,8
C=CCSc1nc(C)c(CCC(C)C)c(=O)[nH]1,15
COc1ccc(CCN(/C=C2\Sc3ccccc3C2=O)C(C)=O)cc1OC,20
N/C(=N\OC(=O)COc1ccc(Cl)cc1Br)c1ccncc1,10
Cc1ccc(-c2cc(C(=O)NCCc3ccc(S(N)(=O)=O)cc3)c3ccccc3n2)cc1,14
CCn1cc(C(=O)O)c(=O)c2cnc(N3CCN(C(=S)NC(=O)c4ccccc4)CC3)nc21,24
CCOc1ccccc1OCC(=O)NCCc1ccc(S(N)(=O)=O)cc1,13

# (list continues)
SMILES,Biofilm kill mix
Nc1cc(N)nc(SCC(=O)NNC(=O)Cc2ccccc2)n1,18
O=C(COc1ccccc1F)NC12CC3CC(CC(C3)C1)C2,19
Cc1cc(C(=O)CSc2nc(N)cc(=O)[nH]2)c(C)n1Cc1ccco1,15
CC(C)(C)C(=O)N1CCN(c2ncccc2C(F)(F)F)CC1,24
COc1ccccc1NS(=O)(=O)c1cccc(C(=O)OCc2nc3ccccc3s2)c1,13
COc1ccc(C2=NN(C(=O)CCCC(=O)O)C(c3cccs3)C2)cc1OC (centres undefined),7
Cc1ccc2cccc(OCC(=O)Nc3ccc4c(c3)OCO4)c2n1,7
CC1=C(C(=O)Nc2ccccn2)C(c2ccccc2Cl)NC(=S)N1 (centres undefined),20
CCOC(=O)N1CCN(Cc2nc(N)nc(Nc3ccc(Cl)cc3)n2)CC1,-7
CCC(c1nnnn1C(C)(C)CC)N1CCN(c2ccccc2F)CC1 (centres undefined),6
Cc1ccccc1-c1noc(-c2ccccc2C(=O)NCc2ccco2)n1,21
Cc1ccc(NC(=S)Nc2cccc3cnccc23)c(C)c1,19

# (further entries)
SMILES,Biofilm kill mix
CN1C(=O)c2ccc(NC(=O)c3ccc(N4CCCCC4)c([N+](=O)[O-])c3)cc2C1=O,17
O=C(NCC1OCCc2ccccc21)c1ccc(NC(=O)c2cccc(Br)c2)cc1 (centres undefined),6
Clc1cccc2sc(N3CCN(c4ccccc4)CC3)nc12,6
CCOC(=O)CNC(=O)CSc1nc(-c2cccc(C)c2)ns1,6
CC(C)CC(NS(=O)(=O)c1cc(C(=O)O)ccc1Cl)C(=O)O (centres undefined),13
CC(/C=N\NC(=O)Cn1cncn1)=C/c1ccc(C(C)C)cc1,26
COc1ccccc1OCc1ccc(C(=O)Nc2ccccc2F)cc1,15
COCCNc1ncnc2c1[nH]c1ccccc12,13
COc1ccc2[nH]c(N=Nc3ccccc3C)c(O)c2c1,13
CCC1(C)Cc2c(sc3nc(SC)[nH]c(=O)c23)CO1 (centres undefined),20
Cc1ccsc1C(=O)OCC(=O)NCCCc1ccccc1,10
O=C(CN1CCCC1)OCCCC1CCCCC1,18

# (listing goes on)
SMILES,Biofilm kill mix
Cc1nn(C(C)C(=O)O)c(=O)c2ccccc12 (centres undefined),6
Cc1ccc2c(c1)COc1c3ccc(C(=O)N4CCCCC4)cc3nn1-2,15
O=C(NCCc1c[nH]c2ccccc12)C(=O)NCC1OCCCN1S(=O)(=O)c1ccc(F)cc1 (centres undefined),13
CCOc1ccc(C(Nc2cccnc2)c2cc(Cl)c3cccnc3c2O)cc1 (centres undefined),62
COc1cccc(C(=O)/C=C2\Sc3ccccc3N2C)c1,11
Brc1nnc2n1-c1ccccc1Sc1ccccc1-2,15
O=C(CN1CCC(NC(=O)c2ccco2)CC1)Nc1cccc2ccccc12,12
CCOc1ccc(CN2CCNC(=O)C2CC(=O)NCc2ccccn2)cc1 (centres undefined),-3
Cc1ccnc(SCC(=O)c2cccs2)n1,2
CC(C)CN1CCC(=O)N([C@H](CSc2ccc(Br)cc2)c2ccccc2)CC1,20
Cc1ccc(C(=O)CSc2nc3ccc(C(=O)NCCN4CCCCC4)cc3c(=O)[nH]2)cc1,16
CCCCCCNC(=O)c1cc(-c2ccco2)nc2ccccc12,16

# Continued:
SMILES,Biofilm kill mix
O=C(Nc1nnc(-c2ccncc2)o1)c1ccccc1F,3
CC(=O)N1N=C(c2ccccc2)CC1c1ccccc1[N+](=O)[O-] (centres undefined),-13
Cn1c(=O)c(Sc2ccccc2)c(O)c2ccccc21,5
O=C(CCN1C(=O)/C(=C\c2ccccc2)SC1=S)NNC(=O)c1ccncc1,27
O=C(NC1=NCCS1)c1ccc(N2CCCC2=O)cc1,6
Cc1cccc(C)c1NC(=S)Nc1ccc(F)cc1,8
NC(=O)c1nnn(-c2ccccc2)c1N,24
CN(C(=O)CSc1nnc(C(F)(F)F)n1N)C1CCS(=O)(=O)C1 (centres undefined),17
N#Cc1c(Nc2cccc(F)c2)sc2c(O)cc(=O)[nH]c12,8
Cc1ccc(-c2nnn(CC(=O)Nc3nnc(C(C)C)s3)n2)cc1,12
COc1ccc(OCC(O)CNC(=O)Nc2ccc(C(C)(C)C)cc2)cc1 (centres undefined),7
CCc1ccc(NC(=O)C(C)n2nc(C)c([N+](=O)[O-])c2C)cc1 (centres undefined),6

# Remaining list, next part
SMILES,Biofilm kill mix
CCC(CC)NC(=O)COC(=O)CCC(=O)c1ccc(Cl)cc1,5
O=C(CSc1nc2c(cnn2-c2ccccc2)c(=O)[nH]1)N1CCCCC1,28
Cc1ccc(/C=C2/NC(=O)N(Cc3ccccc3F)C2=O)o1,9
CN(C)N1C(N)=C(C#N)C(c2ccsc2)C2=C1CCCC2=O (centres undefined),15
COc1ccc(/C=C/c2nc(N)nc(-c3ccccc3O)n2)cc1OC,9
Cc1ccc2nc(-c3sc4nc(C)cc(C)c4c3N)[nH]c2c1,8
O=C(CSc1ncnc2ccccc12)Nc1cccc(S(=O)(=O)N2CCOCC2)c1,11
Cn1c(-c2cccs2)[n+](C)c2ccccc21,12
Cc1cc(=O)oc2cc(OCCSCCN3CCCC3)ccc12,7
CCC(=O)N/N=C/c1ccc(-c2ccc(Cl)cc2)o1,27
CCCCCCCC1CC(CSc2ncn[nH]2)OC1=O (centres undefined),2
CCC(C)(C)NC(=O)C(c1ccccc1F)N(C(=O)c1ccn[nH]1)c1ccccc1 (centres undefined),1

# New compounds follow:
SMILES,Biofilm kill mix
C=CCn1c(CCNC(=O)c2ccccc2F)nnc1SCC(=O)Nc1ccc(OC)cc1,0
O=C(CNC(=O)c1cccs1)OCC(=O)c1ccccc1Cl,10
C(=N\N1CCN(c2ccccc2)CC1)/c1ccccc1,15
CCCCn1c(=N)n(CC(=O)c2ccc(Br)s2)c2ccccc21,9
CCN(CC(=O)NC(C)C)Cc1nc2c(Br)cc(Br)cc2c(=O)[nH]1,12
Cc1ccc(NC(=O)c2ccc(NCCN)c([N+](=O)[O-])c2)cc1Cl,23
COc1ccc(N(C(=O)c2cccnc2)S(=O)(=O)c2cccc([N+](=O)[O-])c2)cc1,5
COc1ccc(NS(=O)(=O)c2ccc(N/N=C(\C)c3ccncc3)c([N+](=O)[O-])c2)cc1,6
C/C(=N\NC(=O)CCCNc1cccc(C)c1)c1ccncc1,27
C/C(=N/NS(=O)(=O)c1ccccc1)c1ccc(NC(=O)C2CC2)cc1,6
N#C/C(=C\c1ccc(-c2ccc(C(=O)O)cc2)o1)C(=O)NCC1CCCO1 (centres undefined),16
CN1C(=S)N(c2cccnc2)C(=O)/C1=C\c1ccc(N(C)C)cc1,14

# Going on with the list.
SMILES,Biofilm kill mix
O=C1c2ccccc2C(=O)c2c(NCCCN(CCO)CCO)cccc21,6
Cc1cc(C)cc(N(CC(=O)NCCSCc2ccccc2)S(C)(=O)=O)c1,20
Cc1cccc(CN2CCN(C3CCCC3)C(CCO)C2)n1 (centres undefined),19
CN(C(=O)Cc1noc2ccccc12)c1ccccc1,3
O=C(Nc1ccc(F)c(Cl)c1)C1CC(=O)n2c(nc3ccccc32)N1 (centres undefined),5
c1ccc2c(c1)OCc1cn[nH]c1-2,29
COc1ccc(C2(CNC(=O)c3cccc([N+](=O)[O-])c3)CCOCC2)cc1,7
Cn1c(SCC(=O)Nc2ccc(Br)cc2F)nnc1-c1ccco1,9
Cc1cc(/C=N/NC(=O)CC2(C)OCCO2)c(C)n1-c1cc(Cl)cc(Cl)c1,12
Fc1ccccc1CSc1nncn1NCc1cccs1,5
C[C@@H]1C=C(C(=O)N2CCN(C)CC2)O[C@H](OCc2ccc(CO)cc2)C1,20
Nc1ccc(C(=O)N(CCO)CCO)cc1,9

# Next part; the last 4 above are carried over.
SMILES,Biofilm kill mix
Cc1cc(/C=N/NC(=O)CC2(C)OCCO2)c(C)n1-c1cc(Cl)cc(Cl)c1,12
Fc1ccccc1CSc1nncn1NCc1cccs1,5
C[C@@H]1C=C(C(=O)N2CCN(C)CC2)O[C@H](OCc2ccc(CO)cc2)C1,20
Nc1ccc(C(=O)N(CCO)CCO)cc1,9
COc1ccc(-c2nnc(NC(=O)CSc3ccccc3)s2)cc1OC,13
COc1cc([N+](=O)[O-])ccc1NC(=S)Nc1cc(C(=O)OC(C)C)cc(C(=O)OC(C)C)c1,17
CC(=O)c1cccc(NC(=S)NCCc2ccc(F)cc2)c1,13
CCn1c2ccccc2c2cc(/C=N/O)ccc21,5
Cc1ccc(S(=O)(=O)N2CCCCC2)c(C)c1NS(C)(=O)=O,13
Cc1nnsc1C(=O)N1CCN(c2ccc(F)cc2)CC1,23
Cc1nc(CSc2nsc(C)c2C#N)cs1,16
Cc1ccc(CN2CCN(/N=C\C(Br)=C\c3ccccc3)CC2)cc1,8
CC(=O)N1CN(C2CC(C)(C)NC(C)(C)C2)Cc2c1sc1c2CCCC1,19
COC(=O)c1nc2ccccn2c1F,19
Nn1c(Cc2ccccc2F)nnc1SCC(=O)Nc1cccc(S(=O)(=O)NC2=NCCCCC2)c1,29
Cc1cc(-c2c(C)[nH]n(-c3ccccc3)c2=O)n[nH]1,15

# (continued)
SMILES,Biofilm kill mix
Cc1ccc(Nc2ncnc(N)n2)cc1C,14
COc1ccc(C(=O)NCc2ccccc2)cc1Br,11
CN1CCN(S(=O)(=O)c2cccc(C(=O)Nc3ccccc3N3CCOCC3)c2)CC1,17
COc1ccc(C(=O)Nc2ccccc2C(=O)O)cc1Cl,7
CC1CC(=O)N(c2ccc(N(C)Cc3ccccc3)c([N+](=O)[O-])c2)C1=O (centres undefined),24
Cc1ccc(-c2nnc(NCc3nc4ccccc4[nH]3)c3ccccc23)cc1S(=O)(=O)N1CCCCC1,6
N#Cc1ccsc1NC(=O)CN1CCN(c2ccc(O)cc2)CC1,11
Cc1ccc(-n2cc(CN3CCNC(=O)CC3)c(-c3cccc(C)c3)n2)cc1,-4
COC(=O)Cn1nc(-c2ccc(C)cc2)c2ccccc2c1=O,17
CC(C)(C)C(=O)NC(=S)N1CCOCC1,-6
O=C(Nc1cc(C(F)(F)F)ccc1Cl)C(=O)N1CCCCC1,18
Cc1nc2cc3c(cc2c(C)c1C(=O)OC(C)C)OCO3,8

# Four entries from above, field by field:
Structure: N#Cc1ccsc1NC(=O)CN1CCN(c2ccc(O)cc2)CC1
  Biofilm kill mix = 11
Structure: Cc1ccc(-n2cc(CN3CCNC(=O)CC3)c(-c3cccc(C)c3)n2)cc1
  Biofilm kill mix = -4
Structure: COC(=O)Cn1nc(-c2ccc(C)cc2)c2ccccc2c1=O
  Biofilm kill mix = 17
Structure: CC(C)(C)C(=O)NC(=S)N1CCOCC1
  Biofilm kill mix = -6

# Additional structures follow.
SMILES,Biofilm kill mix
CC(=O)NC1C(Oc2ccccc2C)OC(CO)C(O)C1O (centres undefined),23
CCCN(CCC)S(=O)(=O)c1ccc(C(=O)Nc2c(C)n(C)n(-c3ccccc3)c2=O)cc1,5
CC1CCc2c(sc3ncnc(SCC(=O)c4ccccc4)c23)C1 (centres undefined),-14
Fc1ccc(COc2ccc(Br)cc2CNCC2CCCO2)cc1 (centres undefined),14
CC(C)CCN1CCN(Cc2cccn2-c2ccccn2)CC1CCO (centres undefined),13
Cc1ccc(SC[C@H](c2ccccc2)N2CCN(C)CCC2=O)cc1,13
CCC(=O)Oc1ccc(C(CC)C(CC)c2ccc(OC(=O)CC)cc2)cc1 (centres undefined),3
COC(=O)c1cccc(Cn2c(Cl)c(/C=N/Nc3ccccc3C)sc2=O)c1,-8
CCOC(=O)c1cccc(S(=O)(=O)N2CCCC2)c1,17
COc1ccc(-c2[nH]c(-c3cccc(OC)c3)nc2SCC(=O)NC2CCCC2)cc1,10
Cc1ccc(C(=O)Nc2cccc(-c3cn4ccccc4n3)c2)cc1,16
COC(=O)c1ccc(Cn2nc([N+](=O)[O-])c(Br)c2C)cc1,14

# Further results follow:
SMILES,Biofilm kill mix
CCC(Sc1nc(N)cc(=O)[nH]1)C(=O)Nc1cc(C)on1 (centres undefined),28
CO/N=C/C(=N\Nc1cc(OC)cc(OC)c1)C(=O)c1ccccc1,1
COCCOC(=O)C1=C(C)NC(=O)NC1c1ccc(-c2ccc(F)cc2)o1 (centres undefined),24
CCOC(=O)c1ccc(NC(=S)N2CCN(CCN=CC3=C(O)CC(C)(C)CC3=O)CC2)cc1,9
CN(C)C1(CNC(=S)Nc2ccccc2C(F)(F)F)CCCCC1,4
